# Screening data (PubChem)
# A647 autofl = compound fluoresces in the A647 spectral region; Compound fluorescence, A647 channel (570/671 nm), Tris buffer; max dye-equivalent concentration, M; 59,000 tested, under 10 active; active means above 1 µM dye equivalent; inconclusive means 0.1 to 1 µM; inactive means 0.1 µM or less;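 note: values scaled relative to a standard on each plate; highest value over a series up to 38 µM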
#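 Buffer was dispensed, compounds and Alexa 647 standards were pin-transferred, and plates sat 15 min at room temperature. Intensity at 570/671 nm was then converted to dye-equivalent concentration using the plate's A647 standard curve.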
# A488 autofl = compound fluoresces in the A488 spectral region; AID 591; max dye equivalency, M; hit rate 0.1% among 59,000; compound autofluorescence, A488 spectral region, dye equivalency; active compounds read high; active = above 10 nM dye equivalent; inconclusive = 1 to 10 nM; inactive = 1 nM or less; about half of its hits are not listed in these tables;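 note: highest value over a series up to 38 µM; compound alone in buffer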
#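 Autofluorescence read at ex 480/em 540 nm after 15 min RT in 100 mM Tris pH 8.0; compound signal normalized to A488 standard series on each plate, reported as dye-equivalent concentration at each test concentration.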
# AID923 = qHTS Assay for Allosteric/Competitive Inhibitors of Caspase-1: Spectroscopic Profiling in AFC Spectral Region; compound fluorescence, AFC spectral region (405/520 nm); almost no hit is shown here; Potency, µM (doses to about 57.5 µM), for inactives: at the highest dose fluorescence increase, actives largely listed as activators; hit rate 1.1% among 75,000; AID 923, 2007; active = well fitted activation curve with a large enough effect; inconclusive = small, poorly fitted or top-dose-only effect;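 note: potency is the fitted concentration of half-maximal effect; 0% is about no effect; scaled to a free AFC standard on each plate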
#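 Compound autofluorescence profiled at 405 nm ex/520 nm em during kinetic caspase 1 run (50 nM enzyme, 5 uM Ac-WEHD-AFC, HEPES pH 7.5, 10 mM DTT). Titration up to 57 uM; baseline from regression intercept, normalized to AFC standard curve.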
# Resorufin autofl = resorufin region autofluorescence. Compound fluorescence, resorufin region 547/598 nm, buffer; active compounds read high. max dye-equivalent concentration, M. hit rate 0.04% among 59,000; active = above 10 nM dye equivalent; inconclusive = 1 to 10 nM; inactive = 1 nM or less; a few of its hits are not listed in these tables; note: highest value over a series up to 38 µM
#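 Compounds in 100 mM Tris, pH 8.0, incubated 15 min at room temperature, then fluorescence read at 547 nm excitation/598 nm emission. Signal converted to dye-equivalent concentration via an on-plate six-point resorufin standard curve, per compound concentration.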
# TSHR agonist = TSH receptor (human) agonism | P16473 | HEK293-CNG-TSHR cells (CNG channel as cAMP sensor), membrane potential dye, cAMP | Potency, µM (top dose mostly 57.1 µM), inactives show top-dose activation, hits mostly activators | hit rate 0.48% among 73,000 | AID 926; active = well fitted activation curve of enough size with the parental cells flat; inconclusive = any curve in the parental cells; inactive = parental cells flat and receptor cells flat or falling; note: potency is the fitted concentration of half-maximal effect; % of control where 0% means no effect; weak receptor curves with flat parental cells got no call and are not listed
# Target sequence (P16473 whole entry, looked up): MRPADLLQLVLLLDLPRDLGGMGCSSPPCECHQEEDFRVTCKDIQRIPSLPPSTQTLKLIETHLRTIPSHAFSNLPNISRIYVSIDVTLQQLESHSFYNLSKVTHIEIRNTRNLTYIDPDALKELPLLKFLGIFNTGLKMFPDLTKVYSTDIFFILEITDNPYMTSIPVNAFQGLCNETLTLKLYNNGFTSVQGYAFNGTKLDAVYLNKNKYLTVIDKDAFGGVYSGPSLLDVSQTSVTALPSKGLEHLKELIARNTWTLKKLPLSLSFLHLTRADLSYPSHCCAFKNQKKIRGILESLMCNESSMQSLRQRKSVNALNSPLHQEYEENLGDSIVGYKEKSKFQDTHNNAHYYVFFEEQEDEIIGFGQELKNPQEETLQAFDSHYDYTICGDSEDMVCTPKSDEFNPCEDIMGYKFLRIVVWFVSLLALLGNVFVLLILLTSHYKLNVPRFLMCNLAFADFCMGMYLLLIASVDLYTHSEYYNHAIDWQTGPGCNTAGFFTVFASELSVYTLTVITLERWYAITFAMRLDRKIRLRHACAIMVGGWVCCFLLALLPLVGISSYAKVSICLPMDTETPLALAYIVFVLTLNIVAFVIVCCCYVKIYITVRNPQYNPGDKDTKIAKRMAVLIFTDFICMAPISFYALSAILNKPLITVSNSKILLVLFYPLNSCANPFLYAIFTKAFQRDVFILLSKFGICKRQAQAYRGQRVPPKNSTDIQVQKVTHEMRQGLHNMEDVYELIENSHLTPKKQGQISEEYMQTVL
#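 HEK 293 cells stably expressing TSHR and a cAMP-gated CNG channel; parental CNG-only cells as counterscreen. Cells preloaded 60 min with membrane potential dye plus 100 uM RO 20-1724, then compound 30 min; fluorescence read at 590 nm.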
# * hit, by the source's call; i = inactive; ? = inconclusive; · = no result given; [ ] = remark or other dose. This is a subset, so the mix of outcomes need not match the whole.
SMILES,A488 autofl,TSHR agonist,A647 autofl,AID923,Resorufin autofl
O=C(NCCc1ccccc1)C1CCCN(S(=O)(=O)c2cccnc2)C1 (centres undefined),i,1%,1e-09,3.1%,i
COc1ccc(S(=O)(=O)NCCc2csc(C)n2)cc1C,i,4%[11.4 µM],8.9e-09,0.0%,i
O=C(NCCOc1ccccc1)c1cc2ccccc2o1,i,·,7.6e-09,0.9%,i
COc1ccccc1OCC(=O)Nc1ccc(S(=O)(=O)N2CCCCCC2)cc1,·,?,·,-1.0%,·
C=CCSc1nc(C)c(CC(=O)OCC(C)C)c(=O)[nH]1,·,?,·,0.8%,·
COc1ccc(OC)c(NC(=O)Cc2coc3ccc(C)cc23)c1,i,·,2.5e-08,-0.7%,i
O=C(COc1ccccc1)n1nc(-c2ccc(Cl)cc2)nc1NCc1ccco1,i,8%,4.7e-09,0.7%,i
COc1ccc(C(=S)N(C)C)cc1OC,·,18%,·,4.0%,·
CC1(N2CCOCC2)CC2(O)C(=[N+]1[O-])CCc1nonc12 (centres undefined),i,5%,3.1e-08,1.7%,i
Cc1ccc(C)c(-n2nnnc2Sc2nnnn2-c2ccccc2)c1,i,?,1e-09,-0.1%,i
COC(=O)CSc1nnc(-c2ccccc2OC)o1,i,-9%,1.9e-09,-2.3%,i
Cc1cc(S(=O)(=O)N2CCN(c3c(C)cccc3C)CC2)ccc1F,i,?,1e-09,-0.6%,i
Cn1c(=O)c2c([nH]c(=O)n2C)n(C)c1=O,i,-1%,2.3e-08,0.4%,i
CCCCOC(=O)NS(=O)(=O)c1sc(CC(C)C)cc1-c1ccc(Cn2c(CC)nc3c(C)cc(C)nc32)cc1,i,·,2.6e-08,0.3%,i
COc1cc(C(=O)NCC2CCCO2)ccc1OCc1c(C)noc1C (centres undefined),i,-1%[11.4 µM],7.4e-09,-1.2%,i
CC(C)CO/N=C1/C[C@@H](O)[C@@H](O)[C@@H]2[C@@H]3C(=O)N(c4cccc(Oc5ccccc5)c4)C(=O)[C@H]3CC[C@H]12,·,-5%[11.4 µM],·,-1.1%[11.5 µM],·
Cn1c(=O)oc2cc(S(=O)(=O)NCC3CCCO3)ccc21 (centres undefined),i,-4%,1e-09,1.2%,i
CCOc1ccc(-c2nnn(CC(=O)c3ccc4c(c3)OCCO4)n2)cc1OCC,i,25%,4.8e-09,-0.4%,i
O=C(CSc1nnc(Cc2ccccc2)n1Cc1ccco1)NC12CC3CC(CC(C3)C1)C2,i,?,1e-09,0.1%,i
Cc1cc(=O)oc(C)c1C(=O)NCc1c(F)cc(F)cc1F,i,1%,1.6e-08,1.0%,i
Cc1nn(C/C(C#N)=N\O)c(C)[n+]1N,i,-1%,4.8e-09,1.7%,i
O=C(c1cnccn1)N1CCC2(CC1)CN(c1ccccc1)C2,i,-1%,1e-09,1.2%,i
CC(=NC(C)C)C1=C(O)CCC1=O,i,-1%,3.4e-09,-2.1%,i
CCOC(=O)c1oc2ccccc2c1NC(=O)COc1cccc(OC)c1,i,13%,2.1e-09,-0.6%,i
O=C(O)c1cc(Cl)c(Cl)cc1C(=O)N1CCCC1,·,?,·,3.8%,·
CCn1c(=N)n(CC(O)c2ccco2)c2ccccc21 (centres undefined),i,8%,1e-09,2.2%,i
Cc1ccnc(N2CCC(C(=O)Nc3ccc(Oc4ccccc4)cc3)CC2)n1,i,-2%,2.1e-09,-0.5%,i
N[C@@H](C(=O)O)c1ccc(P(=O)(O)O)cc1,·,-3%,·,-0.7%,·
c1ccc(-c2nc3cc(Oc4ccc5oc(-c6ccccn6)nc5c4)ccc3o2)nc1,i,6%,1.5e-08,0.2%,i
CN(C(=O)c1cccc(N2C(=O)C3CC=CCC3C2=O)c1)C1CCCCC1 (centres undefined),i,·,1.6e-08,3.0%,i
O=C(Nc1ccc(Cl)cn1)c1cc2ccccc2o1,i,?,1.8e-08,0.5%,i
CCOC(=O)c1cnc(-n2nc(C)cc2C)nc1NCc1ccccc1,i,?,5.7e-08,0.8%,i
COc1cccc(-c2nc(CS(=O)CC(=O)NCc3ccccc3)c(C)o2)c1 (centres undefined),·,?,·,2.4%,·
O=C(O)C1CCCN1S(=O)(=O)c1cc(Cl)ccc1Cl (centres undefined),·,-4%,·,1.5%,·
CCc1ccccc1NC(=O)CN(C)Cc1nc(N)nc(Nc2ccccc2C)n1,i,4%,4.6e-08,1.3%,i
CC(C)OC(=O)c1nn2c(C(F)(F)F)cc(-c3ccc(Br)o3)nc2c1Br,i,·,5.3e-08,·,i
COc1ccc(OC)c(Nc2nc(-c3sc(C)nc3C)cs2)c1,·,-13%,·,2.5%,·
O=C(OCc1nc2ccccc2s1)c1cnccn1,i,-5%,9.5e-09,-0.8%,i
Cc1cccc(OCC(=O)OCC(=O)c2c(N)n(C)c(=O)n(C)c2=O)c1,i,13µM*,1e-09,-2.1%,i
O=C(OCC(=O)N1CCCC1)c1cccs1,i,2%,5.6e-09,-0.4%,i
C/C(=N\n1nnnc1Nc1ccccc1)c1ccc(N)cc1,i,-4%,2e-08,-0.2%,i
CO/N=C\[C@@H](C)[C@H](OCc1ccccc1)C(C)C,·,17%[11.4 µM],·,0.1%[11.5 µM],·
C=CCn1c(NC(=O)c2ccc(Br)o2)c(C(=O)OCC)sc1=S,i,24%,1e-09,-0.4%,i
Cc1ccnc(NC(=O)Nc2cccc(F)c2)c1,i,-6%,1e-09,-1.0%,i
CCOC(=O)C1=C(CS(=O)(=O)c2ccccc2)NC(=O)NC1c1ccccc1OCC (centres undefined),·,-3%,·,-2.0%,·
Nc1c(C(=O)NCc2ccco2)nnn1Cc1ccccc1,i,?,1.8e-08,0.7%,i
COc1ccc(NC(=O)CSc2nnc(CNC(=O)c3ccco3)n2-c2ccccc2OC)cc1,i,-3%,9.9e-09,-1.0%,i
COC(=O)[C@@]1(Cc2ccc(F)cc2)[C@H]2c3cc(C(=O)N(C)C)n(Cc4ccc(O)c(OC)c4)c3C[C@H]2CN1C(=O)c1ccccc1,·,?,·,-1.7%,·
COc1cccc(/C=C/c2ccncc2)c1OC,i,9%[11.4 µM],2.7e-08,2.0%,i
COc1cccc(N2CC(C(=O)OC(C)C(=O)c3ccccc3)CC2=O)c1 (centres undefined),i,1%,1e-09,-0.1%,i
COc1ccc(OC)c(S(=O)(=O)N2CCCCC2C(=O)N2CCN(c3ccccn3)CC2)c1 (centres undefined),i,6%,5.8e-09,2.5%,i
C/C(N)=C(/C#N)C(=O)CSc1nc(C2CCCCC2)n(-c2ccccc2)n1,i,15%,8.7e-09,-2.7%,i
O=C(c1ccccc1)c1cccn1CC(=O)N1CCN(c2ccccc2)CC1,i,?,1e-09,0.5%,i
CCCCCSc1nc2c(c(=O)[nH]c(=O)n2C)n1C(C)C,·,-1%[11.4 µM],·,3.0%,·
Cc1ccc(CNC(=O)C2CC(=O)OC23CCCC3)c(C)c1 (centres undefined),i,16%,3.7e-08,-0.6%,i
CC(=O)c1c(C)[nH]c(C(=O)NCCc2cccc(C)c2)c1C,i,15%,9.6e-09,-1.0%,i
CCCCCCCCCCCCCCSCC(=O)O,i,15%,1e-09,2.0%,i
O=C(c1ccco1)N1CCN(C(=O)c2cc(-c3ccncc3)nc3ccc(Br)cc23)CC1,i,8%,1e-09,0.6%,i
O=C(CC(Sc1ccccc1)c1cccs1)c1ccco1 (centres undefined),i,·,4.4e-09,0.1%,i
CCN(CC)CCN1C(=O)c2ccccc2NC1c1cccc(F)c1 (centres undefined),·,?,·,6.1%,·

# Next part:
SMILES,A488 autofl,TSHR agonist,A647 autofl,AID923,Resorufin autofl
O=C(Nc1ccccc1F)c1cc(S(=O)(=O)N2CCCCC2)cs1,i,3%,3.1e-09,-3.1%,i
CCN(CC)S(=O)(=O)c1ccc2c(c1)c(=O)c(C(=O)N1CCN(c3ccccc3)CC1)cn2C,i,-9%,4.4e-08,1.0%,i
c1ccc(COc2ccc(CNn3cnnc3)cc2)cc1,i,3%,2.9e-08,1.4%,i
C=CCn1c(SCc2ccc(C(=O)OC)cc2)nnc1-c1sc(N)nc1C,i,18%,4.4e-08,-1.4%,i
Cc1csc2ncc(C(=O)Nc3ccc4c(c3)OCCO4)c(=O)n12,·,0%,·,3.0%,·
Cc1nc(NC2=NCN(CCN3CCOCC3)CN2)nc2c(C)cccc12,i,15%,3.6e-08,-0.4%,i
Cc1cccc(OCc2nnc(SCC(=O)Nc3ccc(C)c(Cl)c3)o2)c1,·,3%,·,-1.0%,·
COc1cccc(-c2cncnc2NCc2cccs2)c1,i,?,4e-08,-0.2%,i
Cc1ccc(NC(=O)c2cc(NC(=O)c3ccco3)ccc2N2CCOCC2)cc1,i,13%,1e-09,-1.7%,i
CCOC(=O)N1CCN(C(=O)CSc2ncnc3ccccc23)CC1,·,-6%,·,1.2%,·
O=C(NC12CC3CC(CC(C3)C1)C2)N1CCCC(CO)C1 (centres undefined),i,-1%,1e-09,1.5%,i
N#Cc1c(-c2ccco2)cc(-c2cccnc2)nc1N,i,2%,2e-08,0.8%,i

# Some of the entries so far, field by field.
Structure: O=C(c1ccccc1)c1cccn1CC(=O)N1CCN(c2ccccc2)CC1
  A488 autofl = i	TSHR agonist = ?	A647 autofl = 1e-09	AID923 = 0.5%	Resorufin autofl = i
Structure: CCCCCSc1nc2c(c(=O)[nH]c(=O)n2C)n1C(C)C
  A488 autofl = ·	TSHR agonist = -1%[11.4 µM]	A647 autofl = ·	AID923 = 3.0%	Resorufin autofl = ·
Structure: Cc1ccc(CNC(=O)C2CC(=O)OC23CCCC3)c(C)c1 (centres undefined)
  A488 autofl = i	TSHR agonist = 16%	A647 autofl = 3.7e-08	AID923 = -0.6%	Resorufin autofl = i

# Further compounds.
SMILES,A488 autofl,TSHR agonist,A647 autofl,AID923,Resorufin autofl
CS(=O)(=O)N1CCN(C(=O)c2ccc(F)cc2)CC1,i,0%,1e-09,0.7%,i
Cc1ccccc1-n1c(SC(C)C(N)=O)nnc1-c1cccnc1 (centres undefined),i,-14%,1.5e-08,-0.1%,i
COc1cc(C2C(C(=O)c3cccs3)=C(O)C(=O)N2c2cc(C)on2)ccc1O (centres undefined),i,·,7.4e-09,·,i
CCCn1c(-c2ccc(F)cc2)nc2c(N3CCN(CCC(=O)OCC)CC3)nc(C)nc21,·,?,·,1.0%,·
CSc1ccc(S(=O)(=O)Nc2ccc(F)cc2)cc1,i,8%,5.9e-09,1.2%,i
COc1ccccc1-n1cnnc1SCC(=O)N1CCN(S(=O)(=O)c2ccccc2)CC1,i,1%,1e-09,0.7%,i
O=S(=O)(NCc1ccc2c(c1)OCO2)c1ccc2c(c1)oc1ccccc12,i,18%,1e-09,-0.1%,i
CCCN1C(=O)c2ccc(C(=O)NC3=NCCS3)cc2C1=O,i,-13%,3.2e-09,1.1%,i
CCN(CC)C(=O)CSc1nnc([C@H](Cc2c[nH]c3ccccc23)NC(=O)OC(C)(C)C)o1,i,-4%,3.1e-09,1.1%,i
CC(c1ccccc1)n1cc(C(=O)NCC2CCCO2)nn1 (centres undefined),i,0%,1e-09,0.9%,i
O=c1ccnc(SCc2ccccc2Cl)[nH]1,i,24%,1e-09,-0.9%,i
Cn1ccnc1SCC(=O)Nc1cccc(C(F)(F)F)c1,·,2%,·,-0.7%,·
